Assay outcomes from PubChem.
Ba CapD inh: Bacillus anthracis CapD inhibitors, primary screen, biochemical, fluorescence intensity. purified CapD enzyme, fluorescence intensity read-out; active compounds read low; some hits fall short of the stated cut. AID 492967, 2010. hit rate 0.23% among 140,000. z-score (no concentration beside the values). CapD gamma-glutamyltranspeptidase (Bacillus anthracis Ames Ancestor);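 active = z-score under -4 in either of two replicates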;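 also: stock transfer was 100 nL into about 40 µL; score is relative to mean and spread of the plate; one replicate is shown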
AID504770: growth inhibition of E. coli YBA685, primary screen, V. cholerae RctB inhibitors; E. coli YBA685 rctB-dependent plasmid, OD600 growth, 3 h; active compounds read low; z-score (no concentration beside the values); hit rate 0.27% among 130,000;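 active = z-score under -2 on both plates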;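 also: wells of about 30 µL received 100 nL stock; score is relative to mean and SD of the test wells; the first replicate is given; strong numbers were not always called active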
* = called active by the depositor; nt = not tested or not shown. Rows were taken by chance; 0.41% or so of the library scored in one or more.

Results follow in this order: Ba CapD inh, AID504770
> CCN(CC(=O)Nc1ccccc1OC)C(=O)c1ccco1
    nt, -0.45
> O=C1CC(c2cccc(Cl)c2Cl)c2cc(Br)c3ccccc3c2N1 (stereo not drawn)
    -0.065, nt
> COc1ccc(Nc2cc(C(=O)N3CCCCC3)c3ccccc3n2)cc1
    -0.29, -0.75
> O=C1CC(C(=O)Nc2ccccc2)C2=C(CC(c3ccco3)CC2=O)N1 (stereo not drawn)
    -0.63, 1
> C/C(=C/C(=O)C1CC1)C1CC1
    0.48, -0.1
> COc1nc(C)nc2sc3c(c12)CCCC3
    -0.13, -0.25
> Cc1ccc(S(=O)(=O)N(CCCN2CCOCC2)Cc2cccs2)cc1
    0.12, -0.15
> CCOc1ccc(NC(=O)N(CCCN2CCOCC2)Cc2cccnc2)cc1
    3.8, -0.05
> O=C(Cn1cccc1)NCc1cccs1
    0.21, 0.05
> CCOC(=O)c1ccc2nc(C(F)(F)F)nc(NCCCc3ccccc3)c2c1
    0.03, -0.5

Results follow in this order: Ba CapD inh, AID504770
> Cc1ccc(NCC(O)C(O)C(O)CO)cc1C (stereo not drawn)
    0.04, 0.15
> Cc1nn(-c2ccccc2)c(C)c1/C=N/NC(=O)c1ccc([N+](=O)[O-])o1
    -2.3, nt
> CS(=O)(=O)c1sc(NC(=O)Nc2ccc(Cl)cc2)c2c1C=CCC2
    1.3, 0.35
> c1ccc(-c2cc3c(N4CCOCC4)ncnc3s2)cc1
    21, -1.2
> Cc1ccc(CNC(=O)c2ccccn2)n1C
    nt, -0.5
> CC1(C)C2CC=C(/C=N/NC(=O)c3ccc4c(c3)OCO4)C1C2 (stereo not drawn)
    nt, -0.55
> CCc1ccc(C2CC(=O)Nc3c2ccc2ccccc32)cc1 (stereo not drawn)
    -0.13, nt
> Cc1ccc(C(=O)N2c3ccccc3N=C(c3ccc(Cl)cc3)CC2c2ccccc2)cc1 (stereo not drawn)
    0.51, nt
> Cc1[nH]c2ccccc2c1C1=CCNCC1
    0.92, -0.35
> CCCn1c(N)c(C(=O)CN(C)Cc2ccccc2)c(=O)[nH]c1=O
    nt, 0.1

Results follow in this order: Ba CapD inh, AID504770
> NNC(=O)Cc1csc2nc(-c3ccccc3)nn12
    11, 0.2
> COc1ccc(/C=C/C(=O)OCC(=O)NC2CCCC(C)C2C)cc1 (stereo not drawn)
    -0.78, 2.3
> O=C(NC(Cc1ccccc1)C(=O)OCc1ccccc1)OCCc1ccc(Cl)cc1 (stereo not drawn)
    0.045, nt
> COc1ccc(N2CCN(C(=O)NC3CCN(Cc4ccccc4)CC3)CC2)c(OC)c1
    -0.41, nt
> Cc1cccc(NC(=O)C2=Cc3sc(C)c(C)c3CS2)c1C
    -0.73, 0.7
> COc1cc(C2CC(=O)Nc3c2cc(Br)c2ccccc32)cc(Br)c1OC (stereo not drawn)
    -1.1, nt
> O=C(N/N=C/c1cccs1)c1ccccc1
    -2.1, -1.5
> O=S(=O)(Nc1ccccc1Br)c1cccs1
    -0.22, 0.65
> CC1(C)Cc2cccc(OCC(=O)OCC(=O)Nc3ccc4c(c3)OCO4)c2O1
    nt, 0.45
> Cc1ccc2nc(C(F)(F)F)cc(N3CCN(S(=O)(=O)c4c(C)cccc4Cl)CC3)c2c1
    4.7, nt

A few values from above:
`O=C(N/N=C/c1cccs1)c1ccccc1` in Ba CapD inh → -2.1
`COc1cc(C2CC(=O)Nc3c2cc(Br)c2ccccc32)cc(Br)c1OC` (stereo not drawn) in Ba CapD inh → -1.1

(list continues)
Results follow in this order: Ba CapD inh, AID504770
> CS(=O)(=O)c1csc(C(=O)O)c1Cl
    0.74, nt
> CCCC(C)C(=O)NCc1ccccc1OC (stereo not drawn)
    0.41, 0.1
> CC1=C(C(N)=O)C(c2ccccc2)n2nc(SCc3ccccc3)nc2N1 (stereo not drawn)
    1.1, -0.85
> CCOC(=O)CSc1nc(C)cc(Oc2ccc(=O)n(C)n2)n1
    0.52, -0.8
> COc1cc(O)c(/C=N/NC(=O)c2ccc(C)s2)c(OC)c1
    -2.7, nt
> Cc1onc(-c2ccccc2)c1C(=O)Nc1ccc(N)cc1
    -0.62, 0
> O=C1N=C(N2CCCC2)S/C1=C\c1cn[nH]c1-c1ccccc1
    nt, -0.85
> CCCn1c(SCC(=O)N=c2sc3ccccc3n2C)nc2ccccc21
    nt, -1.1
> O=S(=O)(c1cc(Cl)ccc1Cl)n1ccc(-c2ccc(Br)s2)n1
    0.68, 0.3
> O=C(COc1ccc(S(=O)(=O)N2CCCc3ccccc32)cc1)NCC1CCCO1 (stereo not drawn)
    -0.23, -0.7

Results follow in this order: Ba CapD inh, AID504770
> O=C(Nc1ccc(Br)c(C(F)(F)F)c1)c1ccc(CN2C(=O)c3ccccc3C2=O)o1
    -0.08, -0.9
> CCN1CCN(C(=O)N(CC)CC)CC1
    -0.29, 0.7
> C/C(=C\c1ccccc1[N+](=O)[O-])c1cc2ccccc2c2ccccc12
    -0.095, nt
> Nc1nonc1-c1nc2ccccc2n1Cc1ccc(F)cc1Cl
    1.1, 0.1
> COc1ccccc1CNC(=O)CN(C)S(=O)(=O)c1cccc2cccnc12
    0.28, -1.7
> CCOc1cccc(N2C(=O)NC(=O)/C(=C/c3ccc(Oc4ccc([N+](=O)[O-])cn4)cc3)C2=O)c1
    -0.85, nt
> O=C(/C=C/c1c(Cl)nc2sccn12)NCc1ccc2c(c1)OCO2
    nt, 0.05
> Nc1nc(SC23CC4CC(CC(C4)C2)C3)ns1
    nt, 0.9
> CC1CC(C)CN(C(=O)CNC(=O)c2ccc(F)cc2)C1 (stereo not drawn)
    nt, -1
> O=C(O)CSCC(=O)N1CCC(n2cccc2)CC1
    0.31, -0.55

Results follow in this order: Ba CapD inh, AID504770
> O=C(O)c1ccccc1C(=O)c1ccc(Sc2ccc(Cl)cc2)c([N+](=O)[O-])c1
    -1.2, nt
> O=C(NCc1ccco1)c1ccc2c(c1)S(=O)(=O)N=C1CCCCCN12
    nt, -1.7
> CCCS(=O)(=O)c1c(S(=O)(=O)CCC)c2c(C)cccn2c1C(=O)N/N=C/c1cccc(OC)c1
    -0.075, nt
> COc1ccccc1N(C)S(=O)(=O)c1ccc(C(=O)OCC(=O)N2CCC2)cc1
    nt, -1.3
> Cc1cccc(NC(=O)NC(=O)c2ccc(C(C)(C)C)s2)n1
    0.07, 0.6
> CC(C)NC(=S)N1CCC(Cc2ccccc2)CC1
    0.35, -0.6
> Cc1cc(C)nc(OC(Cc2ccncn2)c2ccccc2)n1 (stereo not drawn)
    -0.35, nt
> CCCN1CCN(CCNS(=O)(=O)c2ccc(-c3cc(C(F)(F)F)no3)s2)CC1
    -0.36, -0.25
> CC1=C(C)C(=O)N(CCC(=O)O)C1=O
    0.23, -0.8
> COC(=O)/C(C#N)=C(\C#N)c1ccc(Br)o1
    -3.6, 1

Results follow in this order: Ba CapD inh, AID504770
> COc1ccc(OC)c(-n2c(C)ccc2-c2ccc(S(C)(=O)=O)cc2)c1
    84, nt
> CCSc1nnc(CSc2ncccn2)n1CCc1ccccc1
    5.5, -0.35
> COc1ccc(N2S(=O)(=O)c3ccccc3S2(=O)=O)c(OC)c1
    0.22, nt
> COc1ccc(/C=C/C(=O)ONC2=NCCCCC2)cc1OC
    nt, -0.1
> Cc1ccc(-c2ccc(SCC#N)nn2)c(C)c1
    nt, -0.4
> O=C(Nc1ccccc1SCC(O)CSc1cccs1)c1ccc(Cl)cc1 (stereo not drawn)
    0.045, -0.05
> COc1ccc(CN2CCCC(COC(=O)N3CCN(Cc4ccco4)CC3)C2)cc1OCc1ccccc1 (stereo not drawn)
    -1.1, nt
> COc1ccc(CNc2nc(SCc3cc(=O)n4ccccc4n3)nc3ccccc23)cc1
    0.71, nt
> Cc1c(O)ccc2c(=O)c(Oc3ccccc3)coc12
    -0.14, -0.55
> O=C(NCCc1c[nH]c2ccccc12)c1cc(Cl)cc(Cl)c1
    0.2, -0.35

Results follow in this order: Ba CapD inh, AID504770
> CCOC(=O)c1nc(N2CCN(C(=O)OCC)CC2)c2c3c(sc2n1)CCCC3
    2.2, nt
> c1ccc2c(c1)[nH]c1c(N3CCOCC3)ncnc12
    nt, -0.5
> COC(=O)c1c(C)oc(C)c1S(=O)(=O)NCC1CC1
    0.91, 0.9
> Cc1ccccc1OCCn1c(SCc2nc3ccccc3[nH]2)nc2ccccc21
    0.1, -0.15
> O=C(O)Cn1cc(C=C2C(=O)NC(=S)NC2=O)c2ccccc21
    nt, 0
> NS(=O)(=O)Cc1ccccc1
    nt, 1
> COc1ccc(-n2c(C)cc(/C=C3/C(=N)N4C(=NC3=O)SN=C4S(C)(=O)=O)c2C)cc1Cl
    0.54, 0
> CC1=CC(C)(C)N(C(=O)CNC2CCCCC2)c2cc(C)ccc21
    nt, -0.85
> N#CC1=C(N)C(C#N)(C#N)C(c2ccccc2I)C2CCCC=C12 (stereo not drawn)
    -0.32, nt
> CC(=O)n1c2ccccc2c2c(-c3ccc(C)cc3)c(N3CCOCC3)sc21
    -0.39, 0.6

Results follow in this order: Ba CapD inh, AID504770
> CC(SCc1nc2ccccc2[nH]1)c1ccccc1 (stereo not drawn)
    0.035, -0.05
> CN(C)c1ncnc2sc3c(c12)CCCC3
    nt, 2
> CN(C)c1ccc(-c2nc3ccccn3c2NC2CCCC2)cc1
    nt, -0.55
> O=c1ccc2cc3c4c(oc3cc2o1)CCCC4
    2.2, 0.8
> O=c1c2ccccc2nc2ccccn12
    86, 0.8
> CC1(C)Cc2c(c(-c3ccco3)nc3oc(C(=O)c4ccc(Br)cc4)c(N)c23)CO1
    1.1, nt
> CC(=O)Nc1cccc(-c2cn3c(C)cccc3n2)c1
    82, -1
> Cc1ccc(-c2nc(C)ncc2N=Nc2cc(Cl)cc(Cl)c2)cc1
    0.05, nt
> CN(C)c1nc2c(c(=O)n(C)c(=O)n2C)n1C
    -0.33, -0.5
> CCC(=O)c1cc(N)ccc1O
    -1.6, -0.55

Results follow in this order: Ba CapD inh, AID504770
> Cn1nnnc1SCC(=O)NCCc1ccc(Cl)cc1
    nt, -0.2
> CC(=O)OC1(c2ccccc2)CC(C)CN(C)C1 (stereo not drawn)
    0.32, -0.7
> O=C1/C(=C\c2cccnc2)CN(Cc2ccccc2)C/C1=C\c1cccnc1
    -1.2, 1.4
> COc1ccc(CO[C@@H]2O[C@H](CO)[C@@H](O)[C@H](O)[C@H]2NC(C)=O)cc1OC
    0.01, -1.2
> Cc1ccc(S(=O)(=O)CC(=O)Nc2ccc(-c3nc4ccc(C)cc4s3)cc2)cc1
    -0.66, -1.7
> O=C(O)CC(NCc1ccccc1)c1ccccc1 (stereo not drawn)
    -0.16, -0.8
> CC(=O)N1N=C(c2cccs2)CC1c1c(C)coc1C (stereo not drawn)
    -1.4, 1.9
> CC(=O)c1c(C)oc2ccc(N(C(C)=O)S(=O)(=O)c3ccc(C)cc3)cc12
    -1.8, nt
> COc1ccccc1Nc1cnnc2c(Cl)cccc12
    -3.4, 0.65
> O=C(c1cccc(Cl)c1)N1c2ccccc2CCc2ccccc21
    -0.53, nt

Results follow in this order: Ba CapD inh, AID504770
> Oc1ccc(Nc2ccccc2)cc1
    1.9, -0.25
> CCSc1nc(=O)[nH]c2c1CCCC2
    nt, -0.35
> O=C(c1ccccc1)N1CCCCC(Sc2nnc3ccccn23)C1=O (stereo not drawn)
    nt, 2
> O=S(=O)(c1ccc(C2=NNC(=NC3CC3)SC2)cc1)N1CCCCC1
    nt, -0.25
> CC(Oc1ccccc1)C(=O)OCC(=O)N1CCC(c2ccccc2)=N1 (stereo not drawn)
    nt, -1.4
> CN(C)c1ccc(CN)cc1
    2.7, -0.15
> O=C(c1cnn(-c2ccccc2)c1C(F)(F)F)N1CCN(c2ccccc2)CC1
    -0.72, nt
> Cc1nnc(SCCC(=O)Nc2cccc(-c3nc4ccccc4s3)c2)s1
    -0.45, -1.3
> COc1ccc(CCNC(=O)c2ccc3c(=O)n(CCC4=CCCCC4)c(=S)[nH]c3c2)cc1OC
    -1.4, -0.05
> CN(C)S(=O)(=O)c1ccc(S(=O)(=O)N(C)CC2COc3ccccc3O2)cc1 (stereo not drawn)
    nt, 0.15

By substructure, the compounds so far with a nitro group on carbon (4)
Results follow in this order: Ba CapD inh, AID504770
> Cc1nn(-c2ccccc2)c(C)c1/C=N/NC(=O)c1ccc([N+](=O)[O-])o1
    -2.3, nt
> C/C(=C\c1ccccc1[N+](=O)[O-])c1cc2ccccc2c2ccccc12
    -0.095, nt
> CCOc1cccc(N2C(=O)NC(=O)/C(=C/c3ccc(Oc4ccc([N+](=O)[O-])cn4)cc3)C2=O)c1
    -0.85, nt
> O=C(O)c1ccccc1C(=O)c1ccc(Sc2ccc(Cl)cc2)c([N+](=O)[O-])c1
    -1.2, nt

Next part
Results follow in this order: Ba CapD inh, AID504770
> CCCN1C(=O)/C(=N\OCC(=O)NC23CC4CC(CC(C4)C2)C3)c2ccccc21
    nt, 0.15
> Cc1ccc(-c2nn(C)c(=O)c3ccccc23)cc1CNC(=O)CN1CCOCC1
    -0.17, 2
> CCCCS(=O)Cc1ccccc1 (stereo not drawn)
    nt, 2.2
> O=C(NCc1ccc(S(=O)(=O)N2C=CC(C(F)(F)F)=NCC2)s1)c1ccccc1
    -1.6, 1.1
> COC(=O)c1cc2c(Cl)nc3ccc(C)cc3c2s1
    -0.38, nt
> CC(C)(C)N1CC(C(=O)Nc2ccc(S(=O)(=O)N3CCCCC3)cc2)CC1=O (stereo not drawn)
    nt, 0.1
> COc1ccc(NC(=O)c2ccco2)cc1NC(=O)c1cccc(F)c1
    nt, -0.15
> CN(C)c1nc(C=C(C#N)C#N)c(Cl)n1-c1ccc(F)cc1
    nt, 0.25
> Cc1c(Cl)cccc1N1C(=O)C2C(c3ccc(Br)cc3)OC3(C(=O)c4ccccc4C3=O)C2C1=O (stereo not drawn)
    -0.24, nt
> CN(CCO)c1ncnc2sccc12
    nt, 1.2
> Cc1nnc(N(C)C)c2c1nnn2Cc1ccccc1Cl
    -2.6, 4.1
> O=c1c2sc3nc(N4CCOCC4)c4c(c3c2ncn1-c1ccccn1)CCCC4
    0.56, 2.8
> Nc1c(N2CCCCC2)c2ccccc2oc1=O
    -0.63, 0
